HCMV UL50-53 inh – inhibitors of HCMV UL50-UL53 nuclear egress complex interaction; inhibition, % (test concentration not listed); HTRF UL50-UL53 interaction, normalized percent inhibition; AID 1918969; 0.15% of 190,000 active;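 active = both replicates at 50% or more, plus weaker picks with an unusually low signal ratio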;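 also: stock transfer was 100 nL into about 20 µL; 0% = negative control wells and 100% = wells with untagged competitor protein; inactives centre near -12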
Sa growth inh – inhibitors of Staphylococcus aureus growth at 42 °C; S. aureus RN4220 growth, OD600, 20 h; active compounds read low; relative growth, % (test concentration not listed); 0.53% of 170,000 active;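 active = growth at 42 °C up to 50% and 20 or more points under that at 30 °C, or under 10% at both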;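 also: 300 nL library stock went into each well; scaled to the means of positive and negative controls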
GIV-Gai inh – blocks GIV peptide binding to rat Galpha-i3. P08753. percent of control (FP), % (concentration not given with the values). Galpha-i3/FITC-GIV peptide fluorescence polarization, 90 min; active compounds read low; scaled: aluminum fluoride 0%, vehicle 100%. AID 1224905. 0.42% of 210,000 active;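 active = replicate mean at 85% of control or lower, very high polarization wells dropped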;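 also: wells of about 15 µL received 100 nL stock; the first replicate is given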
Target sequence (P08753 whole entry, looked up): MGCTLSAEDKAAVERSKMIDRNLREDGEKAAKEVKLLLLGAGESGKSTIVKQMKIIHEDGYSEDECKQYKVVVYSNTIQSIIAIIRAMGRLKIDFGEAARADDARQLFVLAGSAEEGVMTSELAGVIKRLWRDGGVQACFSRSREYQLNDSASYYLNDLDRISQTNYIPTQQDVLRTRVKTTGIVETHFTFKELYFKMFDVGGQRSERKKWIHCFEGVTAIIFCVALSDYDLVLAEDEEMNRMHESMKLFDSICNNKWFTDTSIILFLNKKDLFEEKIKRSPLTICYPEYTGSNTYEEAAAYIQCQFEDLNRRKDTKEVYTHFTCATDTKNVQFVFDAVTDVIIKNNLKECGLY
Sa growth inh second temp – second read-out of Sa growth inh, no call of its own (marks repeat the call); relative growth, %; measured here: growth at 30 °C;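 optical density after 20 h as mean of two plates; 100% = untreated growth and lower means inhibition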
Starred values were filed as active, the others as inactive; . = no result given; & = joins results of further samples.

SMILES	HCMV UL50-53 inh	Sa growth inh	Sa growth inh second temp	GIV-Gai inh
COc1cccc(N2CCN(C(=O)c3ccc(Cn4c(=O)[nH]c5cc(OC)c(OC)cc5c4=O)cc3)CC2)c1	-8	101	86	101
Cc1ccccc1C(=O)Nc1nc(SCc2ccc(Cl)cc2)n[nH]1	12	128	100	100
CC(=O)OC1CC(C)(C)N(O)C(C)(C)C1	-2	85	85	.
CCc1cnc2c(c1SCC(=O)Nc1cc(Cl)ccc1OC)c(=O)n(C)c(=O)n2C	.	119	90	103
COc1ccc(NC(=O)c2ccnc(Nc3cccc(OC)c3)c2)cc1	8	.	.	108
Cc1ccc(NC(=O)CSc2nnc(-c3ccncc3)o2)cc1Cl	-28	.	.	98
Cc1ccc(CSCC(=O)NCCc2ccc(Cl)cc2)cc1	.	113	85	108
N#C/C(=C\C=C\c1ccccc1)C(=O)N1CCCC1	-47	99	91	.
Cc1cccc(NC(=O)Cn2c(=O)n(Cc3ccccc3)c(=O)c3oc4ccccc4c32)c1C	.	101	90	98
CCOC(=O)c1cc(-c2ccccc2)nn1Cc1ccccc1	-6	104	92	104
COCc1cc(=O)n2[nH]c(-c3ccccc3)cc2n1	-14	103	87	99
CCc1cc2c3c([nH]c2cc1S(=O)(=O)NC(C)(C)C)CCCC3=O	6	99	93	109
CC(C)N(C(=O)CSc1ncn[nH]1)c1ccccc1	-7	115	90	.
CCc1ccccc1NC(=O)Cn1ncc2c(C)n(Cc3ccccc3F)c(C)c2c1=O	-14	108	89	107
CCN1CCN(c2nnc(-n3cccc3CNc3ccc(Br)cc3F)s2)CC1	-7	.	.	106
Cn1c(/C=N/O)nc2ccccc21	-11	120	84	.
CCCC(=O)N(c1ccc2oc3c(c2c1)CCCC3)S(=O)(=O)c1cc(C)ccc1C	-19	107	94	106
O=C(c1cc2cc(Br)ccc2oc1=O)N1CCSC1c1ccccc1Cl (configuration not stated)	-16	.	.	103
Cn1c(-n2cccc2)c(-c2c(-c3ccccc3)[nH]c3c2c(=O)n(C)c(=O)n3C)c(=O)n(C)c1=O	-8	87	94	106
O=C(O)C1CCCCN1S(=O)(=O)c1cccc2nsnc12 (configuration not stated)	-124	109&107	96&87	97
CN(C)CCn1c2c(c(SCC(=O)Nc3ccc(F)cc3F)nc1=O)CCC2	.	104	92	95
COc1cccc(CNC(=O)C2CCN(c3nc4ccc(Cl)cc4[nH]3)CC2)c1	.	55	33	97
Cc1c(-c2nc(-c3ccccc3)no2)nnn1-c1ccc(F)c(Cl)c1	-11	81	95	107&107
CC(C)N(Cc1nc(-c2ccccc2)no1)C(=O)CCc1ccccc1	.	99	80	98
CC(C)Cn1c(=O)c2cc(Cl)ccc2n2c(SCc3ccccc3F)nnc12	18	.	.	109

An excerpt from above in order of the Sa growth inh second temp value, highest first:
SMILES | Sa growth inh | Sa growth inh second temp | GIV-Gai inh
Cn1c(-n2cccc2)c(-c2c(-c3ccccc3)[nH]c3c2c(=O)n(C)c(=O)n3C)c(=O)n(C)c1=O | 87 | 94 | 106
N#C/C(=C\C=C\c1ccccc1)C(=O)N1CCCC1 | 99 | 91 | .
Cn1c(/C=N/O)nc2ccccc21 | 120 | 84 | .

The listing continues:
SMILES	HCMV UL50-53 inh	Sa growth inh	Sa growth inh second temp	GIV-Gai inh
Nc1ccc(C(=O)N2CCCCC2)cc1	-17	84	85	.
CCOC(=O)c1c(-c2ccccc2)csc1NC(C)=O	21	92	106	.
CC1CCCCN1C(=O)COC(=O)c1ccc(N2CCCC2=O)cc1 (configuration not stated)	-16	92	91	.
COCCn1c(SCc2csc(N(C(C)=O)c3ccccc3)n2)nc2ccccc21	-8	104	92	.
COc1cccc(N2CCN(S(=O)(=O)c3ccc4c(c3)CCCN4C(C)=O)CC2)c1	.	94	86	105
O=C(Nc1cccc2c1C(=O)c1ccccc1C2=O)c1ccc(S(=O)(=O)N2CCCC2)cc1	-3	.	.	97
Cc1cc(C)n(CCc2nc(-c3ccc(Cl)cc3)no2)n1	20	.	.	98
CCc1cccc(C)c1NC(=O)C(CC)n1ncn2c(cc3cc(C)ccc32)c1=O (configuration not stated)	-22	105	89	108
CCc1ccc(S(=O)(=O)Nc2cc3c(cc2C)n(C)c(=O)c(=O)n3C)cc1	.	72	84	100
CCC1Cn2c(C(=O)NCCCOC(C)C)cc3c(Cl)ccc(c32)O1 (configuration not stated)	-3	.	.	102
CCc1ccc(NC(=O)CSC2=Nc3ccccc3C3=NC(CCC(=O)NCCc4ccccc4)C(=O)N23)cc1 (configuration not stated)	.	103	82	101
COc1ccc(C(=O)C(O)c2ccc(OC)cc2)cc1 (configuration not stated)	-4	88	93	.
COc1ccc2nc(NC(=O)C(C)C)sc2c1	13	81	98	.
CCN(CC)CCNCc1cc(C)n(-c2cc(C)on2)c1C	5	88	94	.
CCN(CC)CCC(O)(c1ccccc1)C1CCCCC1 (configuration not stated)	-2	79	97	.
COC(=O)C1CCN(C(=O)Cc2csc(NC(=O)c3ccccc3)n2)CC1	-25	.	.	102
CCc1ccccc1N(C)C(=O)c1ccc2c(=O)n3c(nc2c1)CCCCC3	-5	97	90	100
CNC(=S)N/N=C(\C)c1ccc(N2CCOCC2)cc1	-42	95	96	.
Cc1ccc2c(c1)c(=O)c1ccccc1n2CCCC(=O)Nc1c(F)cccc1F	-59	103	87	107
COc1ccc(-c2csc3nc(C)cc(C)[n+]23)cc1	-35	115	77	.
Cc1cc(C)nc(NC(c2ccccn2)c2cc(C)sc2NC(=O)c2ccccc2)n1 (configuration not stated)	0	.	.	107
O=C(COc1ncnc2c(Cl)cc(Cl)cc12)NCCCN1CCCC1=O	-15	93	96	.
CCOC(=O)c1c(C)c(C(=O)C(F)(F)F)c2ccccn12	-11	65	87	.
COC(=O)C1(C(=O)OC)Sc2ccccc2C1=O	-19	65	89	.
CC1=C(c2ccc(C(C)C)cc2)S(=O)(=O)NC1=NCc1ccccc1C	-20	97	93	96
(next part)
SMILES	HCMV UL50-53 inh	Sa growth inh	Sa growth inh second temp	GIV-Gai inh
COc1ccc(NC(=O)c2cc(-c3ccccc3)nc3ccccc23)c([N+](=O)[O-])c1	-23	.	.	105
Cc1ccc2oc(-c3ccc(NC(=O)CCC(=O)O)cc3)nc2c1	-20	126	88	108
Nc1ncnc2nc(SCc3ccc(Cl)cc3Cl)[nH]c12	-11	84	83	104
O=C(NCCCc1ccccc1)c1cnc2sc(N3CCCCC3)nn2c1=O	-22	.	.	98
CC1Cc2cc(S(=O)(=O)CCC(=O)NCc3ccccc3Cl)ccc2N1C(=O)C1CC1 (configuration not stated)	.	92	80	100
COc1ccccc1Nc1cc(=O)[nH]c(=O)[nH]1	6	90	79	105
O=C(CSc1nc2ccccc2c(=O)n1CC1COc2ccccc2O1)NCc1ccccc1 (configuration not stated)	0	126	97	103&107
CCOC(=O)Cn1cc(/C=C2\Sc3ccccc3C2=O)c2ccccc21	-61	.	.	131
CC(NC(=O)c1ccncc1)c1ccncc1 (configuration not stated)	-24	97	96	105
COc1ccc(S(=O)(=O)N(CC(=O)Nc2c(C)n(C)n(-c3ccccc3)c2=O)c2ccc(C)cc2)cc1OC	7	.	.	103
COc1ccc(N2CC(c3nc4ccccc4n3CC(=O)N(c3ccccc3)C(C)C)CC2=O)cc1 (configuration not stated)	-25	.	.	102
CC(=O)N1N=C(c2ccncc2)OC1c1cc(-c2ccccc2)nc2ccccc12 (configuration not stated)	-39	.	.	100
CC1=CC(=O)C(CCOCCC2=CC(=O)C(C)=CC2=O)=CC1=O	-23	90	16	110
COc1ccc(NC(=O)CN2C(=O)C(c3ccccc3)=NC23CCCC3)cc1	-5	111	97	107
O=C(NCCc1ccccc1)c1ccc2c(c1)nc1n2CCOC1	.	89	96	110
CC(C)(C)NC(=O)CSc1nnc(-c2ccncc2)o1	-19	.	.	100
CCn1c(C(=O)O)c(CC(=O)N2CCC(C(N)=O)(N3CCCCC3)CC2)c2ccccc21	-8	.	.	104
NC(=O)CSc1nc2cc3c(cc2c(=O)n1CCCC(=O)NCc1ccc2c(c1)OCO2)OCO3	.	81	76	101
CCOC(=O)c1sc2ncnc(N3CCCCC3C)c2c1C (configuration not stated)	12	.	.	108
CNC(=O)c1sc(=S)n(Cc2ccccc2)c1N	-66	.	.	104
CC1CCN(C(=O)CCS(=O)(=O)c2cc3c(cc2Cl)NC(=O)CO3)CC1	.	96	93	103
C=CCn1c(=O)n(Cc2ccccc2)c(=O)c2cc3c(nc21)CC(C)(C)OC3	-26	.	.	100
Cc1cc(C(C)(C)C)cc(S(=O)(=O)Nc2ccc(C(=O)N3CCC(C)CC3)cc2)c1C	.	104	88	102
N#Cc1c(NC(=O)c2ccc3c(c2)OCO3)sc2c1CCC2	-3	80	88	106
COc1ccccc1NC(=O)Cn1nc2c(Sc3ccccc3)nc3ccccc3n2c1=O	-2	.	.	104
(further entries)
SMILES	HCMV UL50-53 inh	Sa growth inh	Sa growth inh second temp	GIV-Gai inh
COC(=O)CC1=CC(SCc2cccc(F)c2)=Nc2ccccc2N1	-38	.	.	109
CCOc1ccc2c(c1)cc(C(=O)Nc1nccs1)n2C	12	.	.	101
COc1ccc(-n2c(SCC(=O)NCc3ccccc3)nc3ccsc3c2=O)cc1	.	79	94	103
Cc1cc(S(=O)(=O)/N=C(\N)c2cccnc2)cc(C)c1F	10	108	104	104
CCOC(=O)c1cnc2cccc[n+]2c1Cl	-21	87	74	.
O=C1CN(S(=O)(=O)c2ccc(-c3ccc(=O)[nH]n3)s2)c2ccccc2N1	-43	110	98	103
COc1ccccc1CNC(=O)c1ccccc1SC	2	86	84	113
COC(=O)c1ccc(/C=N/NC(=S)NCc2ccco2)cc1	-12	93	106	.
COc1cccc(C2C3=C(CC(c4ccc(Cl)cc4)CC3=O)Nc3onc(C)c32)c1 (configuration not stated)	-14	.	.	104
NS(=O)(=O)c1ccc(CCNS(=O)(=O)c2ccc3[nH]cc(C(=O)O)c(=O)c3c2)cc1	-32	88	87	100
CCn1c(N)c(C(=O)N2CCCCC2)sc1=S	.	76	74	105
CCOC(=O)c1ccc2c(c1)[nH]c(=O)c(=O)n2CC	-8	88	80	.
O=C1C=C(NC2CCCC2)CC(c2ccccc2)C1 (configuration not stated)	.	104	88	100
CCS(=O)(=O)NCCc1sc2nc(-c3ccc(OC)cc3)nn2c1C	.	123	87	99
O=C(NCc1ccccc1F)c1ccc(CSc2nc3cccnc3n2Cc2ccccc2)cc1	.	148	103	97
O=C1CCCc2c1cnn2-c1ccccc1	-15	102	100	105
O=C(CCCSc1nnc(-c2cccs2)n1Cc1ccccc1)N1CCOCC1	-16	95	96	.
O=C(Nc1ccc(F)cc1F)C12CC3CC(CC(C3)C1)C2	-1	100	93	108
O=C(c1cccc(N2C(=O)CCS2(=O)=O)c1)N1CCc2ccccc2C1	-26	.	.	103
COc1ccc(-n2c(=O)c3c4c(sc3n(Cc3ccccc3Cl)c2=O)CCC4)c(OC)c1	-6	101	86	103
CCN1CCN(c2ncnc3c2cnn3-c2ccc(C)c(Cl)c2)CC1	.	96	101	107
Cc1nn(C(C)C(=O)NC2CCCCCC2)c(=O)c2cc3occc3n12 (configuration not stated)	.	104	87	98
Oc1ccccc1-c1nnc2n1CCC2	-18	92	87	.
CCOc1ccc(-c2nnc(SCC(=O)NCCC(C)C)nc2-c2ccc(OCC)c(OC)c2)cc1OC	.	100	96	102
C=CCN1C(=O)/C(=C\c2ccc(C(=O)O)cc2)S/C1=N\c1nnc(CC)s1	-72	78	67	.

Entries from the list above with bromine (2):
SMILES	HCMV UL50-53 inh	Sa growth inh	Sa growth inh second temp	GIV-Gai inh
CCN1CCN(c2nnc(-n3cccc3CNc3ccc(Br)cc3F)s2)CC1	-7	.	.	106
O=C(c1cc2cc(Br)ccc2oc1=O)N1CCSC1c1ccccc1Cl (configuration not stated)	-16	.	.	103

Carrying on.
SMILES	HCMV UL50-53 inh	Sa growth inh	Sa growth inh second temp	GIV-Gai inh
CCN(CC)C(C)C#Cc1ccccc1 (configuration not stated)	-12	107	88	102
CCCCn1c(=O)c2sccc2n2c(SCc3ccc(F)cc3)nnc12	-14	.	.	102
O=c1c(O)c(-c2ccc(O)cc2O)oc2cc(O)cc(O)c12	-75&-112	.	.	136
N#Cc1c2c(c(Nc3ccc(O)cc3)n3c1nc1ccccc13)CCC2	-17	109	85	95
CC(C)c1ccccc1NC(=O)COC(=O)c1cc(Cl)cc(Cl)c1	-20	100	86	.
CN1/C(=C\C=N\NC(=O)C2COc3ccccc3O2)C(C)(C)c2ccccc21 (configuration not stated)	-22	57	54	.
O=C(Cc1ccccc1)Nc1cccc(-c2nc3cccnc3s2)c1	-5	86	87	99
Cc1ccc(NC(=O)CSc2nc(-c3ccco3)cc(C(F)(F)F)n2)c(C)c1	-12	87	92	96
O=C(O)c1ccc(NS(=O)(=O)c2ccc(Cl)c(C(=O)Nc3ccccc3)c2)cc1	-11	109	93	98
CCOC(=O)Cn1c(=O)n(-c2cccc(Cl)c2)c2nc(-c3ccccc3Cl)nc(C(N)=O)c21	.	98	99	103
COC(=O)C(C)OC(=O)c1ccc(Oc2nc(N(C)C)nc(N(C)C)n2)cc1 (configuration not stated)	-18	.	.	105
O=C(NCCC1=CCCCC1)C(c1ccccc1)c1ccccc1	-7	109	103	.
c1ccc(CNc2nc3ccccc3[nH]2)cc1	-10	87	65	.
Cc1ccc(SC(=O)c2ccco2)cc1	11	76	59	102
CCCN1C(=O)C(O)(CC(=O)c2ccc(CC)cc2)c2ccccc21 (configuration not stated)	.	92	87	102

Source: PubChem BioAssay (ICCB-Longwood Screening Facility, Harvard Medical School)
